# Rango dissoc inh – qHTS Assay for Inhibitors of RanGTP induced Rango (Ran-regulated importin-beta cargo) - Importin beta complex dissociation; Biochemical FRET Rango-importin beta, RanGTP-induced dissociation; 340,000 tested, 0.071% active; AID 540253, 2011; Potency, µM (highest dose often 46.1 µM), for the others: at the top dose activity change, negative = inhibition; Snurportin-1 (Homo sapiens) + GTP-binding nuclear protein Ran (Homo sapiens) + Importin …; active means falling FRET ratio curve, often poorly fitted, with flat reads before Ran was added; inconclusive means other falling curves, or compound fluorescence or quenching; inactive means flat or rising ratio curve;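 note: potency is the fitted concentration of half-maximal effect; % of control where 0% means no effect; nearly all actives have a fitted effect of over 45% in size; -100% = wells without RanGTP and RCC1; the record marks most hits as doubtful in a second field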
#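 Two FRET readings bracket the reaction: one 5 min after compound meets Rango–importin beta, another 45 min after RanGTP-RCC1 (0.6 uM Ran, 0.2 uM RCC1, 2 mM GTP) is added. Only the second defines inhibition.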
# GLA inh pH 4.5 – qHTS Assay for Inhibitors of Human alpha-Galactosidase at pH 4.5; purified enzyme, 4-MU-alpha-Gal fluorescence, pH 4.5; activity change, negative = inhibition, % at 105 µM; AID 1467, 2008; 230,000 tested, under 10 active; inconclusive = small, poorly fitted or top-dose-only inhibition, or a rising curve; inactive = flat fitted curve, though single readings scatter; no compound was filed as active;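 note: 0% = full activity with enzyme and -100% = basal without enzyme; dose as in the result columns while the protocol names 77 µM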
# miR-21 FLuc – qHTS Assay for Modulators of miRNAs and/orActivators of miR-21; HeLa miR-21 FLuc reporter, luciferase, 48 h; Potency, µM (highest dose often 38.3 µM), without a hit: at the highest dose reporter change, positive = more light; 340,000 tested, under 10 active; active = well fitted rising curve with a large enough effect; inconclusive = small, poorly fitted or top-dose-only effect; inactive = no such curve, though single readings can be large or run the other way;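 note: % of control where 0% means no effect; miR-21 action dims this reporter so a rising signal means less miR-21 action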
#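 Luminescence from a firefly luciferase reporter carrying a miR-21 binding site downstream, stably expressed under a CMV promoter in HeLa cells that make miR-21 endogenously, reports miRNA modulation after 48 h compound exposure up to approximately 40uM final.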
# Rango complex inh – qHTS Assay for Inhibitors of Rango (Ran-regulated importin-beta cargo) - Importin beta complex formation; Importin subunit beta-1 (Homo sapiens), Q14974; AID 540263, 2011; 340,000 tested, 0.031% active; Potency, µM (top dose mostly 92.2 µM), without a hit: top-dose inhibition of complex formation; Rango CFP/YFP FRET sensor + importin beta, 45 min; active = rising FRET ratio curve, often small or poorly fitted; inconclusive = mostly compound fluorescence or quenching in the first reads; inactive = flat curves in all reads;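 note: potency is the fitted concentration of half-maximal effect; 0% = DMSO wells and 100% = buffer wells lacking importin beta; nearly all actives have a fitted effect of over 15% in size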
# Target sequence (Q14974 whole entry, looked up): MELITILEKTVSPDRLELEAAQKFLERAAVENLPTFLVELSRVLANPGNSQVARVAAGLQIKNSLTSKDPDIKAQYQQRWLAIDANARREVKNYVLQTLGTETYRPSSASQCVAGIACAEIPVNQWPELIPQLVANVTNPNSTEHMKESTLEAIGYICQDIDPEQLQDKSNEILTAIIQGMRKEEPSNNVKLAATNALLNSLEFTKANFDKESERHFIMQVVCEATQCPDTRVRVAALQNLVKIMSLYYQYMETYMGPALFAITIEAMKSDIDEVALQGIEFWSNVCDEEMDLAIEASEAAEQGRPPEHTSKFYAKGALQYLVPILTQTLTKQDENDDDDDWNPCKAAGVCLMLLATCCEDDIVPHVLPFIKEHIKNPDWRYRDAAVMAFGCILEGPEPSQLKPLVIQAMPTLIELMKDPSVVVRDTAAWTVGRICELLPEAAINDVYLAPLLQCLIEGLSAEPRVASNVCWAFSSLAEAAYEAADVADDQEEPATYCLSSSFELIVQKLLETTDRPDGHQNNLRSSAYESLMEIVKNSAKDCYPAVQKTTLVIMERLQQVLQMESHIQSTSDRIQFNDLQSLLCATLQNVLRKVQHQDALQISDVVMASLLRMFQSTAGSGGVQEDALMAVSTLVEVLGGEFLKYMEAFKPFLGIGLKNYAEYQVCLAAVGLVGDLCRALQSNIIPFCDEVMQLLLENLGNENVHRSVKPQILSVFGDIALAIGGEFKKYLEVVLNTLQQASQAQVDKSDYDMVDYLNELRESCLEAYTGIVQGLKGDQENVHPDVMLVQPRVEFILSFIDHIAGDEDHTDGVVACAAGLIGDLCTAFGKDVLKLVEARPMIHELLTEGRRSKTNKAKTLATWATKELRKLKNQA
#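 FRET biosensor Rango (snurportin 1 IBB between N-terminal EYFP and C-terminal Cerulean), 50 nM in PBS/1 mM DTT/0.02% Tween-20/0.1% BSA, preincubated 5 min RT with compound; 0.125 microM importin beta added, 45 min RT, CFP/YFP FRET ratio read.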
# The depositor's hits bear a star; ? = inconclusive; / = not tested or not shown; & = joins results of further samples. Not all compounds are listed; the hit share may differ from the screen's.
Rango complex inh	GLA inh pH 4.5	miR-21 FLuc	Rango dissoc inh	SMILES
6.8%	6	-7%	-11%	CSc1nc(C)cc(/C=C\c2ccccc2)c1C#N
-8.0%	4	0%	-24%	C=C1C(C(=O)N2CCN(C)CC2)C1C(=O)N1CCN(C)CC1 (stereo not given)
-0.6%	/	/	4%	O=C1C2C3CC(C(Br)C3Br)C2C(=O)N1c1nccs1 (stereo not given)
-0.2%	-1	1%	3%	CC(C)CN(C(=O)COC(=O)CNC(=O)c1ccccc1F)C1CCS(=O)(=O)C1 (stereo not given)
0.4%	-7	0%	0%	Cc1ccc(C(=O)Nc2ccc(Cl)cn2)cc1S(=O)(=O)N1CCOCC1
2.8%	8	2%	-5%	COC(=O)C1CC(=O)N(Cc2ccccc2)C1 (stereo not given)
-1.5%	0	1%	8%	COc1ccc(-n2ccnc2CN2CCCC(CO)(Cc3cccc(OC)c3)C2)cc1 (stereo not given)
1.9%	/	/	-3%	CCN1C[C@@H]2[C@@H]3C(=O)N(Cc4ccccc4)C(=O)[C@@H]3[C@](Cc3ccccc3)(C1=O)N2C(=O)c1ccc(Cl)c(Cl)c1
3.7%	/	/	22%	OCCCn1c(C(CO)Nc2nc(-c3ccc(Cl)cc3)cs2)nc2ccccc21 (stereo not given)
?	/	/	?	CCOC(=O)C1=C(O)/C(=C/c2cn(CC(=O)NCC3CCCO3)c3ccccc23)SC1=Nc1ccc(C)cc1 (stereo not given)
-1.0%	4	-5%	-14%	O=C(NC1=NCCS1)c1sc2cc(Cl)cc(Cl)c2c1Cl
-5.5%	/	3%	8%	COc1ccccc1CNS(=O)(=O)c1ccc2c(c1)NC(=O)CS2

# Of the compounds above, these have four or more nitrogen atoms.
Rango complex inh	GLA inh pH 4.5	miR-21 FLuc	Rango dissoc inh	SMILES
-8.0%	4	0%	-24%	C=C1C(C(=O)N2CCN(C)CC2)C1C(=O)N1CCN(C)CC1 (stereo not given)
3.7%	/	/	22%	OCCCn1c(C(CO)Nc2nc(-c3ccc(Cl)cc3)cs2)nc2ccccc21 (stereo not given)

# Next section.
Rango complex inh	GLA inh pH 4.5	miR-21 FLuc	Rango dissoc inh	SMILES
2.9%	-7	-1%	12%	O=C(Cn1nnc(-c2ccccc2)n1)N/N=C/c1cccc([N+](=O)[O-])c1O
1.5%	7	-1%	-10%	O=C(Cn1cnc2c(cnn2-c2ccccc2)c1=O)N1CCN(c2ccc(F)cc2)CC1
-2.4%	-6	1%	-4%	Cc1cnccc1CN(C)Cc1nc(Cc2ccccc2Cl)no1
3.0%	-2	6%	-4%	C=CCNC(=O)c1onc(CSc2ccc(C)c(C)c2)c1C(=O)O
?	2	4%	?	CCCCOC(=O)C1=C(C)NC2=C(C(=O)CCC2)C1c1cc(OC)ccc1OC (stereo not given)
2.7%	-6	13%	-5%	CN(CC/C=C1/c2ccccc2CSc2ccccc21)CCCO
0.1%	/	/	-16%	Cc1ccc(S(=O)(=O)N2CCN(C(=O)CN3C(=O)c4ccc([N+](=O)[O-])cc4C3=O)CC2)c(C)c1
/	2	-4%	/	O=C(CSc1ccc(-c2cccs2)nn1)NCc1ccccc1Cl
0.0%	-10	0%	-3%	COc1ccc(OC)c(S(=O)(=O)N2CCC(C(=O)Nc3ccccc3)CC2)c1
-1.0%	2	-3%	23%	O=C(O)c1ccccc1C(=O)NC1CCCCNC1=O (stereo not given)
-2.6%	-3	0%	-4%	CC1CCc2nn(CC(=O)NCCCN3CCCCC3)cc2C1 (stereo not given)
3.6%	/	2%	2%	Cc1ccccc1CN(C)Cc1cc(=O)oc2c(C)c(C)ccc12
0.3%	-17	0%	-14%	CCc1sc(N(C(=O)Cc2ccccc2)c2ccccc2F)nc1-c1ccc(C)cc1
2.5%	-3	-3%	1%	CCc1nnc(NC(=O)COC(=O)CN2C(=O)c3ccccc3C2=O)s1
2.6%	-17	-48%	10%	CCn1cc(/C=C/C(=O)Nc2ccc(C)cc2Br)cn1
0.2%	-6	-3%	-9%	Cc1cc(O)c(C(C)C)cc1N=C1CSC(=O)N1
5.5%	4	-27%	-1%	CCN=C1NN=C(c2c[nH]c3ccccc23)CS1
-1.9%	0	27%	0%	CC(C)(C)C1CCc2c(sc3nc(SCC(=O)O)nc(N)c23)C1 (stereo not given)
-1.0%	/	/	-1%	Cc1cn(CC(=O)NCc2ccc(N(C)C)cc2)c(=O)[nH]c1=O
1.8%	/	2%	15%	COc1cc(C(=O)NCCC(=O)NC2CCCCC2)cc(OC)c1OC
-2.1%	-11	17%	-2%	CCN(c1ccccc1)S(=O)(=O)c1cc(NC(=O)Nc2ccccc2C#N)ccc1Cl
-1.0%	/	/	-12%	CCOC(=O)CC1=NN(c2ccccc2)C(=O)C1=c1sc(=C2SC(C)=C(C)N2CC)c(=O)n1CC
3.0%	-7	-11%	-26%	COC(=O)NNC(=O)C12CC3CC(CC(C3)C1)C2
-0.1%	/	10%	-2%	O=C1CSC(=S)N1c1cccc(Br)c1
2.3%	/	-23%	19%	O=C(Nc1cccnc1)c1ccc(N2CCOCC2)c([N+](=O)[O-])c1
0.0%	-10	-16%	2%	Cc1ccc(C)c(NC(=S)NNC(=O)c2csc3c2CCC(C)C3)c1 (stereo not given)
6.6%	-1	3%	1%	CC1(C)CC(=NO)CC(C)(C)N1
-0.1%	/	-3%	0%	COc1ccc(N2C(=O)CSC23C(=O)N(CC(=O)NC2CCCC2)c2ccccc23)cc1 (stereo not given)
1.2%	/	3%	7%	CC(=O)Nc1cc2c3c(c1)CCN3C(=O)CC2
-0.9%	6	-4%	6%	Cc1cccc(C)c1NC(=O)CSc1nnc([C@@H]2CCCN2C(=O)OC(C)(C)C)o1
2.1%	/	14%	-4%	CCCc1cc(=O)oc2cc(OCC(=O)NCCc3c[nH]c4ccc(OC)cc34)ccc12
0.9%	-17	-9%	2%	COCCSc1ccccc1C(=O)NCCc1ccccc1
-0.8%	/	-3%	7%	O=C(CN1CCN(Cc2cccc(F)c2)CC1)Nc1ccccc1F
3.5%	1	-53%	15%	O=C(N/N=C/c1cc2c(cc1Br)OCO2)C1COc2ccccc2O1 (stereo not given)
-7.9%	5	-14%	0%	CCOC(=O)CN1C(=N)N(c2nc(NC(C)C)nc(NC(C)C)n2)CC1=O
?	8	0%	-12%	Cc1ccccc1-n1c(O)cc(=O)[nH]c1=S

# 2 entries drawn at random from the list so far, as already listed:
Rango complex inh	GLA inh pH 4.5	miR-21 FLuc	Rango dissoc inh	SMILES
6.6%	-1	3%	1%	CC1(C)CC(=NO)CC(C)(C)N1
-0.1%	/	-3%	0%	COc1ccc(N2C(=O)CSC23C(=O)N(CC(=O)NC2CCCC2)c2ccccc23)cc1 (stereo not given)

# (list continues)
Rango complex inh	GLA inh pH 4.5	miR-21 FLuc	Rango dissoc inh	SMILES
-1.5%	/	/	5%	Cc1nc2ccccc2c(C)c1CC(=O)OC(C)C(=O)NC1(C#N)CCCCC1 (stereo not given)
3.9%	/	-1%	11%	COc1ccc(C)cc1NC(=O)c1ccc(NS(=O)(=O)c2cccs2)cc1
0.8%	/	/	11%	NC(=O)c1cc([N+](=O)[O-])ccc1NCc1ccc(N)cc1
/	1	-12%	/	O=C(Nc1ccc2c(c1)OCO2)[C@@H]1[C@@H]2C(=O)N(C3CCCCC3)C(=O)[C@@H]2C2c3ccccc3C=CN21 (stereo not given in full)
-4.9%	9	-7%	-6%	O=C(CCn1c(=O)sc2ccccc21)NC1=NCCS1
-2.6%	/	-7%	?	Cc1ccc(N2CC(C(=O)NC3CCC(C)CC3)CC2=O)cc1 (stereo not given)
-1.7%	4	-4%	6%	O=C(CSC(=S)N1CCOCC1)Nc1nc(-c2ccccc2)c(-c2ccccc2)o1
-1.0%	3	1%	0%	O=S(=O)(NCc1cccnc1)c1ccc(Cl)c(Cl)c1
-0.9%	/	/	3%	CCOC(=O)C1=C(COc2ccccc2)NC(=O)NC1c1ccc2ccccc2c1 (stereo not given)
-0.8%	-6	-1%	-2%	CC(C)COC(=O)N1CC(O)CC1C(=O)O (stereo not given)
?	-8	0%	?	CCCN1CC=C2C(C#N)=C(N)C(C#N)(C#N)C(c3cccc(OC)c3OC)C2C1 (stereo not given)
-0.2%	/	/	5%	CCCCNc1ccc(C(F)(F)F)cc1S(=O)(=O)NCCc1ccc(F)cc1
-1.0%	/	-6%	0%	CC1CCN(C(=S)NC(=O)c2ccccc2Br)CC1
-0.8%	/	/	-1%	COc1ccccc1CNC(=O)COC(=O)CNS(=O)(=O)c1ccc(NC(C)=O)cc1
1.4%	/	/	1%	Cn1cc(S(=O)(=O)N2CCOCC2)cc1C(=O)O
-0.5%	/	-12%	-18%	CC(=O)NC(C(=O)c1ccccc1)N1CCCCC1 (stereo not given)
2.6%	0	3%	6%	Cc1ccc(CN2CCN(Cc3cccc(OCCO)c3)CC2CCO)o1 (stereo not given)
-1.9%	4	1%	-15%	O=C(O)CCCSc1nccn1-c1ccccc1
0.8%	/	-1%	9%	CN1CCN(S(=O)(=O)c2ccc(Br)c3ccccc23)CC1
1.2%	9	-5%	-2%	CC1CC1C(=O)Nc1nc(-c2ccc(Cl)s2)cs1 (stereo not given)
4.0%	/	/	2%	COCCN(C(=O)c1ccc(C)o1)c1c(N)n(CC(C)C)c(=O)[nH]c1=O
-2.4%	/	2%&1%	-12%	COc1ccc(N2CCN(C(=O)c3cn(C)c4ccc(S(=O)(=O)N5CCOCC5)cc4c3=O)CC2)cc1
2.5%	1	-6%	-7%	O=C(Nc1nnc(SCc2c(Cl)cccc2Cl)s1)c1cccc([N+](=O)[O-])c1
-1.0%	/	-3%	2%	Oc1ccccc1-c1nnc2n1CCCCC2

# Grouped by structure, the entries above containing an NH in an aromatic ring (5)
Rango complex inh	GLA inh pH 4.5	miR-21 FLuc	Rango dissoc inh	SMILES
5.5%	4	-27%	-1%	CCN=C1NN=C(c2c[nH]c3ccccc23)CS1
-1.0%	/	/	-1%	Cc1cn(CC(=O)NCc2ccc(N(C)C)cc2)c(=O)[nH]c1=O
2.1%	/	14%	-4%	CCCc1cc(=O)oc2cc(OCC(=O)NCCc3c[nH]c4ccc(OC)cc34)ccc12
?	8	0%	-12%	Cc1ccccc1-n1c(O)cc(=O)[nH]c1=S
4.0%	/	/	2%	COCCN(C(=O)c1ccc(C)o1)c1c(N)n(CC(C)C)c(=O)[nH]c1=O

# Next part
Rango complex inh	GLA inh pH 4.5	miR-21 FLuc	Rango dissoc inh	SMILES
-3.8%	-9	-1%	1%	CS(=O)(=O)N(CCc1ccccc1)CC(=O)NCc1ccco1
-3.1%	-6	19%	-5%	CCn1c(C(=O)N2CCCC(C(=O)NCCc3ccc(C)cc3)C2)cc2sccc21 (stereo not given)
-1.3%	1	6%	3%	Cc1cccc(C)c1NC(=O)NC1(C(=O)N2CCOCC2)CCCCC1
-0.8%	0	?	1%	COCCCN(C(=S)Nc1cc(Cl)cc(Cl)c1)C(C)c1ccncc1 (stereo not given)
2.0%	/	/	-2%	O=C(Nc1cc(-c2ccccc2)cs1)c1ccco1
-1.4%	/	/	-18%	COc1cccc(C2c3cc4c(cc3OC(N3CCCC3)C2C)OCO4)c1O (stereo not given)
1.3%	-2	-8%	-1%	COc1ccc(CCNC(=O)COc2cc(=O)n(C)c3ccccc23)cc1OC
2.5%	4	1%	-4%	NS(=O)(=O)c1cc(C(=O)OCC(=O)c2ccccc2)c(Cl)cc1Cl
2.6%	-14	0%	-9%	O=C(NC1=NCCS1)c1cccc(N2C(=O)c3ccccc3C2=O)c1
-6.3%	/	6%	-5%	CC(=O)N1c2ccc(S(=O)(=O)NCC3CCC(C(=O)N4CCC(C)CC4)CC3)cc2CC1C (stereo not given)
0.0%	-5	-4%	-5%	COC(=O)c1ccc(COc2ccccc2/C=C(\C#N)C(=O)NC(C)C)cc1
